# S aureus helic: blocks Staphylococcus aureus DNA helicase | purified S. aureus helicase, fluorescence unwinding assay; about half of the hits fall short of the stated cut | inhibition, %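 (tested at about 80 µM)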 | 0.05% of 120,000 active | AID 485395;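 active = both duplicates at 50% or more, or one of them with a favoured structure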;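 also: 0% = mean of negative control wells and 100% = mean of positive control wells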
# MgrA-DNA mod: alters Staphylococcus aureus MgrA binding to DNA | fluorescence polarization | inhibition, %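 (about 10 µg/mL by stock and volumes)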 | 0.13% of 84,000 active | AID 602314;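 active = above 50% in either of two replicates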;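 also: 0% = protein plus DNA without compound and 100% = DNA alone without protein; higher means less MgrA bound to DNA so lower polarization; one replicate is shown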
# Numbers without * were called inactive; · = not tested or not shown. An excerpt. The share of hits here may be higher or lower than overall.
SMILES,S aureus helic,MgrA-DNA mod
Cc1cc(C)n2nc(C(=O)OCc3cccc(S(=O)(=O)N(C)C)c3)nc2n1,-22.0,·
Cc1ccc2oc(-c3cccs3)nc2c1,·,1.1
Cc1ccccc1NCC(=O)N/N=C\c1ccccc1,6.0,0.1
Cc1ccccc1NC(=S)NCCO,·,-1.2
O=c1ccnc2c1c(-c1ccccc1)nc1[nH]onc12,9.0,·
CCn1nccc1C(=O)Nc1cc(C(=O)OC(C)C)cc(C(=O)OC(C)C)c1,27.0,·
CN(C(=O)c1cn(C2CCCC2)c(=O)c2c1c1ccccc1n2C)c1cccc(C(F)(F)F)c1,-5.0,0.4
COC(=O)C(C)NC(=O)c1ccc(C)cc1 (stereo unspecified),-13.0,-0.4
O=C(CSc1ccc2ccccc2c1)NCCN1C(=O)CSC1=O,18.0,·
COc1ccc(C(=O)CSc2nc3c([nH]2)c(=O)[nH]c(=O)n3C)cc1,10.0,·
Cc1cc(Cl)ccc1Oc1cc(C(F)(F)F)cnc1C#N,·,-2.0
CCn1c(=S)ccc2cc(OC)ccc21,-17.0,·
COC(=O)c1ccccc1NC(=O)c1nc2ncccn2n1,-24.0,·
COc1cc(C=C2C(=O)NC(=O)NC2=O)ccc1OCCOc1ccc(C(C)(C)C)cc1,·,2.3
CCOc1ccc(-c2c(C#N)c(N)nc(SCC(=O)c3ccc([N+](=O)[O-])cc3)c2C#N)cc1,·,-1.9
Cc1cc(NC(=O)CCCC(=O)O)n(C)n1,·,-4.4
COc1ccc(N2CCN(Cc3cc(C(C)C)c(C)cc3O)CC2)cc1,-12.0,·
Cc1ccc(CN2CC(C(=O)NCc3ccc(S(N)(=O)=O)cc3)CC2=O)cc1 (stereo unspecified),-20.0,·
COC(=O)c1ccc(CSc2nc3ccncc3n2C(C)C(=O)OC)cc1 (stereo unspecified),8.0,·
CC(C)(C)C1C/C(=C/c2ccco2)C(=O)/C(=C/c2ccco2)C1 (stereo unspecified),-43.0,0.3
CCS(=O)(=O)c1nc(NC(C)=O)n[nH]1,-16.0,·
COc1nnc(-c2ccc(Cl)cc2)c2ccccc12,·,-2.5
O=C1SC(Nc2ccccc2)C(=O)N1c1ccccc1 (stereo unspecified),13.0,·
Cc1ccc(Oc2ncccc2NC(=O)c2ccco2)c2c1CCC2,·,2.8
O=C(CSc1nc(-c2ccccc2)cs1)N1CCN(S(=O)(=O)c2ccccc2)CC1,-8.0,·
O=c1nc2n(c3sc4c(c13)CCCC4)CC(O)=C2c1nc2ccccc2s1,7.0,·
C=CCC(CN)(CC=C)c1ccc(OC)c(OC)c1,3.0,·
COCCCNC(=S)N/N=C/c1ccc(N(C)C)cc1,·,1.4
O=C(Oc1ccc(C2Oc3ccccc3C3CC(c4ccccc4)=NN32)cc1)c1ccccc1 (stereo unspecified),·,-1.2
CCn1c(=NC(=O)CSCC(=O)N2CCCc3ccccc32)sc2ccccc21,-6.0,·
COc1ccc(-c2cc(C(=O)Nc3sc4c(c3C(N)=O)CCC(C)C4)no2)cc1OC (stereo unspecified),5.0,·
COc1ccc(C2(O)CC3CCC(C2)N3c2cc(C)nc(-c3ccccc3)n2)cc1 (stereo unspecified),2.0,-1.5
CC1(C)CC(=O)c2cnc(NC(=O)c3ccc(Cl)cc3)nc2C1,20.0,-2.3
O=C(O)c1cc2cccc(S(=O)(=O)N3CCCCC3)c2cc1O,1.0,·
O=C(CSC(=S)N1CCOCC1)c1ccccc1,2.0,0.5
Cc1cccc(NC(=O)NC(C)c2c(-n3cccc3)sc(C)c2C)c1C (stereo unspecified),4.0,0.1
O=C(O)C1CCCN(S(=O)(=O)N2CCCCC2)C1 (stereo unspecified),20.0,0.5
O=C(CSc1nc2ncc(Cl)cc2[nH]1)NN1C(=O)NC2(CCCCC2)C1=O,5.0,·
CCCn1nc(C(=O)N2CCCCCCC2)c2ccccc2c1=O,17.0,·
OC1CCCN(C(=S)NCc2ccccc2)C1 (stereo unspecified),-4.0,-0.6
COc1ccc(-n2nc(C(=O)N(C)c3ccccc3)c3c4ccccc4n(C)c3c2=O)cc1,14.0,4.2
CCOc1cc(-c2noc(CCCC(=O)Nc3cccc(C)c3C)n2)cc(Br)c1OC,3.0,·
CC(=O)NC1C(=O)N(c2ccccc2)N=C1C (stereo unspecified),3.0,4.3
Cc1nc(SCC(=O)Nc2ccccn2)n[nH]1,4.0,·
CCCNC(=O)CN1CCN(Cc2ccc(OCCC(C)C)cc2)CC1,3.0,·
CC1CCCN(S(=O)(=O)c2ccc(N3CCOCC3)nc2)C1 (stereo unspecified),·,-2.4
O=C(Cc1ccccc1)N1CCN(c2cc(C(F)(F)F)nc3ccccc23)CC1,·,2.4
CCOC(=O)C1CCCN(C(=O)c2cc3cc4ccc(OC)cc4nc3o2)C1 (stereo unspecified),9.0,-1.8
Cc1ccc(CNc2ccc3nnc(-c4ccccc4)n3n2)cc1,·,0.1
O=C(Cn1ccc2ccccc21)Nc1cccc(C(F)(F)F)c1,-2.0,1.6
COc1ccc(OCc2nnc(SC(C)C(=O)Nc3ccc(N4CCOCC4)cc3)n2C)cc1 (stereo unspecified),-10.0,·
CCOC(=O)Cn1nnc(-c2cccs2)n1,·,-2.5
CCCCSc1nnc2c(n1)OC(c1cc(Br)c(O)c(OC)c1)Nc1ccccc1-2 (stereo unspecified),·,2.1
S=c1[nH]nc(Cn2cnc3ccccc32)n1-c1ccccc1,4.0,3.4
CCN1CCN(c2ccc(Nc3ccnc4cc5ccccc5cc34)cc2)CC1,48.0*,42.8
CCN(CC)c1ccc2cc(-c3csc(-c4nc(-c5cc6ccc(N(CC)CC)cc6oc5=O)cs4)n3)c(=O)oc2c1,·,-2.3
Cc1cc(C)n(CC(=O)O)c(=O)n1,-2.0,·
O=C(Nc1cc(C(F)(F)F)cc(C(F)(F)F)c1)c1ccccc1[N+](=O)[O-],·,2.9
Cn1c(C(=O)O)c(CNCCC2=CCCCC2)c2ccccc21,20.0,-0.9
CCN1C(=O)SC(CC(=O)O)C1=O (stereo unspecified),17.0,-4.3

# Additional compounds:
SMILES,S aureus helic,MgrA-DNA mod
CCCn1c(C)cc(/C=C(\C#N)C(=O)N(CC)c2nc3c(C)cccc3s2)c1C,8.0,·
O=C(COC(=O)c1ccc(Cl)cc1)NCC1CCCCC1,-12.0,-1.3
COc1ccc(C(=O)OCC[N+]2(C)CCOCC2)cc1,14.0,0.1
Cc1nn(C)c(C)c1NS(=O)(=O)/C=C/c1ccccc1,2.0,·
CCc1c(C)c(C#N)c2nc3ccccc3n2c1N1CCCC1,-15.0,·
CC(C)(CO)NC(=S)NCC1CCCO1 (stereo unspecified),·,-0.8
Cc1ccc(Cl)cc1N1CC(O)=C(c2nc3ccccc3c(=O)[nH]2)C1=N,-2.0,0.3
O=C(CN1CCCc2ccccc21)NN1C(=O)NC2(CCCCC2)C1=O,-6.0,·
Brc1c(-c2ccccc2)nc2ccccn12,18.0,·
Cn1nc(C(F)(F)C(F)F)cc1-c1ccccc1O,12.0,·
O=C(COc1ccc(-n2ccnc2)cc1)Nc1cccc(Cl)c1,-10.0,·
COC(CNC(=O)c1cc(=O)[nH]c2ccc(Br)cc12)OC,5.0,-0.1
Cc1cc2cc(CNC(=S)NC(C)(C)C)ccc2n1C,10.0,1.1
CCOC(=O)c1ncoc1-c1ccc(C(F)(F)F)cc1,·,-1.1
c1ccc2c(c1)C(Nn1cnnc1)=N/C2=N\n1cnnc1,-7.0,·
CCn1cc(SCC(=O)N2CCOCC2)c2ccccc21,-12.0,·
O=C(CC1Sc2ccccc2NC1=O)NCc1ccccc1 (stereo unspecified),16.0,·
Clc1ccc(SCCCCn2cncn2)cc1,16.0,-0.8
CC(=O)N(Cc1cc2cc(C)c(C)cc2n2nnnc12)CC1COCCO1 (stereo unspecified),17.0,-27.2
O=C(CSc1ncnc2nc[nH]c12)N1CCOCC1,10.0,-1.2

# Overlap with the part before: 2 compounds, then new ones.
SMILES,S aureus helic,MgrA-DNA mod
CC(=O)N(Cc1cc2cc(C)c(C)cc2n2nnnc12)CC1COCCO1 (stereo unspecified),17.0,-27.2
O=C(CSc1ncnc2nc[nH]c12)N1CCOCC1,10.0,-1.2
O=C1C2(CCC13COC(c1cc(Br)ccc1O)OC3)COC(c1cc(Br)ccc1O)OC2 (stereo unspecified),3.0,·
Cc1nc(-c2ccccn2)nc(N2CCN(CCO)CC2)c1Cl,·,-0.4
Cc1c2cnn(-c3ccccc3)c(=O)c2c(C)n1CC(=O)NC(C)C,2.0,0.2
Oc1ccc2c(c1)oc1cc(O)ccc12,20.0,·
O=S(=O)(c1ccccc1)N(c1ccccc1)c1ccccc1,-1.0,-0.8
N#Cc1cn(-c2ccccc2Cl)nc1N,·,1.5
CCOC(=O)c1c(/N=C/C2=C(O)C(c3ccccc3)CCC2=O)sc(C)c1C (stereo unspecified),·,20.2
CCOC(=O)CNS(=O)(=O)c1cccc2nsnc12,·,0.6
O=C1C2C3CC4C5C3C1C5C(F)(F)C42 (stereo unspecified),-5.0,·
COC(=O)c1ccc(-n2nnnc2SCC(=O)NC(C)(C)C)cc1,-6.0,-1.8
CCOC(=O)c1[nH]c2ccccc2c1NC(=O)c1ccccc1,17.0,·
CCC1CCCCN1C(=O)COc1ncnc2ccccc12 (stereo unspecified),5.0,-2.0
O=C(NC1CCC(O)CC1)c1cc(Cl)c(O)c(Cl)c1 (stereo unspecified),3.0,·
COc1cccc(CN(C)CCN)c1,-1.0,1.0
S=c1nn[nH]n1Cc1cccs1,-4.0,·
O=[N+]([O-])c1cc(C(F)(F)F)cc([N+](=O)[O-])c1Oc1ccc(F)cc1F,·,-1.0
Cc1cc(=O)oc2cc(OCC(=O)N3c4ccccc4CC3C)ccc12 (stereo unspecified),-14.0,-0.7
COc1ccccc1NC(=O)Nc1nc(CC(=O)NCc2cccs2)cs1,12.0,·
COc1cccc(C2=NC(C)(C)NC(c3ccccc3O)C2)c1 (stereo unspecified),4.0,-0.7
CC(C)CCn1c(=O)c2ccccc2n2c(SCc3cc(Cl)cc4c3OCOC4)nnc12,-11.0,·

# Entries above that have an NH in an aromatic ring:
SMILES,S aureus helic,MgrA-DNA mod
O=c1ccnc2c1c(-c1ccccc1)nc1[nH]onc12,9.0,·
COc1ccc(C(=O)CSc2nc3c([nH]2)c(=O)[nH]c(=O)n3C)cc1,10.0,·
CCS(=O)(=O)c1nc(NC(C)=O)n[nH]1,-16.0,·
O=C(CSc1nc2ncc(Cl)cc2[nH]1)NN1C(=O)NC2(CCCCC2)C1=O,5.0,·
Cc1nc(SCC(=O)Nc2ccccn2)n[nH]1,4.0,·
S=c1[nH]nc(Cn2cnc3ccccc32)n1-c1ccccc1,4.0,3.4
Cc1ccc(Cl)cc1N1CC(O)=C(c2nc3ccccc3c(=O)[nH]2)C1=N,-2.0,0.3
COC(CNC(=O)c1cc(=O)[nH]c2ccc(Br)cc12)OC,5.0,-0.1
O=C(CSc1ncnc2nc[nH]c12)N1CCOCC1,10.0,-1.2
CCOC(=O)c1[nH]c2ccccc2c1NC(=O)c1ccccc1,17.0,·
S=c1nn[nH]n1Cc1cccs1,-4.0,·

# Other entries follow:
SMILES,S aureus helic,MgrA-DNA mod
CNS(=O)(=O)c1ccc2[nH]c(=O)cc(C)c2c1,-5.0,·
O=C(COC(=O)c1cccc(Cl)c1)NC12CC3CC(CC(C3)C1)C2,16.0,0.2
Cc1ccccc1NCc1nc[nH]c1C,1.0,-1.0
COC(=O)CSc1cc(C(C)(C)C)c(O)c(C(C)(C)C)c1,8.0,-1.0
COc1ccc(S(=O)(=O)NCc2ccccc2)cc1,8.0,0.9
O=C1CC(C(=O)O)c2ccccc2N1 (stereo unspecified),9.0,·
CCC(c1nnnn1Cc1ccco1)N(Cc1cccs1)Cc1cc2c(C)cc(C)cc2n2nnnc12 (stereo unspecified),12.0,-2.0
c1ccc(-n2ncc3c(OCc4nc5ccccc5s4)ncnc32)cc1,-20.0,·
CCOc1cc(-c2cc(I)c(O)c(OC)c2)cc(=O)c2c(C)oc(C)c12,-36.0,·
CCc1nnc2c(Nc3ccc(O)cc3)nc3ccccc3n12,13.0,·
Cc1noc(C)c1/C=N/NC(=O)CC12CC3CC(CC(C3)C1)C2,-3.0,·
O=C(O)c1cc(NC(=O)c2cccs2)cc(C(=O)O)c1,6.0,0.9
COc1ccc(Nc2nc(NCCO)c3ccccc3n2)c(OC)c1,11.0,-2.4
COC(=O)c1ccc(NC(=O)C(C)C)cc1,7.0,-2.2
Cc1cc(C(=O)Nc2nn(C)c3ccccc23)no1,·,-3.1
CCC(=O)N1c2ccccc2NC2=C(C(=O)CCC2)C1c1ccccc1 (stereo unspecified),12.0,·
CCOC(=O)Cn1nnc(N2CCCC2)n1,·,2.3
Cc1ccc(-n2c(O)c(C=Nc3ncnc4nc[nH]c34)c3ccccc3c2=O)cc1C,19.0,·
Cc1cc(C)c(NC(=O)/C=N/OCn2nnc3ccccc3c2=O)c(Cl)c1,-7.0,·
COC(=O)c1cc(OC(=O)CCN2C(=O)C3CC=CCC3C2=O)cc(C(=O)OC)c1 (stereo unspecified),34.0,·
COc1ccccc1NC(=O)C1=C(C)Nc2nc(SC)nn2C1C(C)C (stereo unspecified),7.0,·
O=C(COc1ccc(Cl)cc1Cl)NN1C(=O)c2cccc3c([N+](=O)[O-])ccc(c23)C1=O,·,0.1
CCOc1ccc(NC(=O)CC2CC3CCC2C3)cc1 (stereo unspecified),-1.0,-0.1
COc1ccc(C2(O)CCN(C(=O)c3ccc4c(c3)OCO4)CC2)cc1,1.0,0.6
Nc1ccc(C(=O)c2ccc3c(c2)OCCO3)cc1N,1.0,·
Cc1cc(C)nc(Sc2ccc3nnnn3n2)n1,-5.0,0.5
CCOC(=O)N1CCC(Nc2nc3ccc(Cl)cc3n3cnnc23)CC1,-8.0,1.1
O=c1nc(NCc2ccco2)sc2ncccc12,12.0,·
